Assay outcomes (PubChem)
CapD inh – inhibitors of Bacillus anthracis CapD enzyme; purified CapD enzyme, fluorescence intensity read-out; stronger effect = lower value; some hits fall short of the stated cut; z-score (no concentration beside the values); hit rate 0.23% among 140,000; AID 492967;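 active means z-score under -4 in either of two replicates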;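 further: stock transfer was 100 nL into about 40 µL; score is relative to mean and spread of the plate; one replicate is shown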
AID504770 – growth inhibitors of E. coli YBA685 in a screen for V. cholerae RctB (chromosome II replication) inhibitors. z-score (no concentration beside the values). E. coli YBA685 rctB-dependent plasmid, OD600 growth, 3 h; stronger effect = lower value. hit rate 0.27% among 130,000;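 active means z-score under -2 on both plates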;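 further: wells of about 30 µL received 100 nL stock; score is relative to mean and SD of the test wells; the first replicate is given; strong numbers were not always called active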
Numbers without * were called inactive; i = inactive; x = no result given.

canonical_smiles | CapD inh | AID504770
Cc1cc(C2C(C#N)=C(N)N(c3cccc(Br)c3)C3=C2C(=O)CCC3)c(C)s1 (stereo not drawn) | 0.29 | x
CC1CCN(c2ccc(C(N)=O)cc2NC(=O)c2ncoc2-c2ccc3ccccc3c2)CC1 | x | 0
CNC(=O)Nc1cccc(C(F)(F)F)c1 | 0.11 | -1
CC1CCN(c2nc3c(S(=O)(=O)c4ccccc4)nnn3c3ccccc23)CC1 | x | 1.05
CC1CCN(Cc2ccc(O)c3ncccc23)CC1 | -0.435 | 0.45
CSc1n[nH]c(-c2cc(C(F)(F)F)cc(C(F)(F)F)c2)n1 | 0.715 | -0.25
COCCCn1c(=C(C#N)C#N)s/c(=C/c2ccncc2)c1=O | x | -0.15
Nc1ccc(-n2nc(C(F)(F)F)cc2C(F)(F)F)cc1 | -0.055 | x
O=C(/C=C/c1ccccc1)Nc1ncn[nH]1 | -0.245 | -1.1
CCOc1ccc(CCNCc2c(C)[nH]c(C)c2C(=O)O)cc1 | 0.07 | -0.25
CC(Oc1ccc(-c2ccccc2)c(F)c1)c1ccn(C(=O)c2ccco2)n1 (stereo not drawn) | 0.205 | x
CC(C)(C)NC(=O)c1cccc(S(=O)(=O)N2CCCC2)c1 | 0.76 | 1.65

Reprinted at random: four entries already listed
canonical_smiles | CapD inh | AID504770
CNC(=O)Nc1cccc(C(F)(F)F)c1 | 0.11 | -1
CC(C)(C)NC(=O)c1cccc(S(=O)(=O)N2CCCC2)c1 | 0.76 | 1.65
CCOc1ccc(CCNCc2c(C)[nH]c(C)c2C(=O)O)cc1 | 0.07 | -0.25
CC1CCN(Cc2ccc(O)c3ncccc23)CC1 | -0.435 | 0.45

(listing goes on)
canonical_smiles | CapD inh | AID504770
CCCCSC1=C(C#N)C(=O)NC(CCC)S1 (stereo not drawn) | -1.35 | -0.15
Clc1ccc(CNc2ccc3c(c2)OCCO3)c(Cl)c1 | -0.06 | -0.95
Cc1c(C(=O)N2CCN(Cc3ccc4c(c3)OCO4)CC2)sc2ncn(CC(=O)N3CCOCC3)c(=O)c12 | -0.625 | x
COc1ccc2ccccc2c1CN1CCC(NS(=O)(=O)c2ccc(F)cc2F)C1 (stereo not drawn) | 1.03 | x
N#CC1=C(SCC(=O)NCc2ccccc2)NC(=O)CC1c1ccco1 (stereo not drawn) | 0.635 | -0.8
CC(C)(C)c1cc2cc(N(Cc3ccccn3)C(=O)c3cccs3)ccc2[nH]1 | -0.525 | x
O=C1CN(NC(=O)COc2ccc(Cl)cc2)C(=O)N1 | x | 0.05
CCc1cc(C(=O)c2ccc(OC)cc2)c(NC(=O)CCC(=O)O)s1 | -0.02 | -0.45
COC(=O)c1cc(C(=O)OC)n(Cc2ccc(Cl)cc2Cl)n1 | -0.175 | -0.75
CCOC(=O)NC(=S)N1CCCC1 | 0.31 | -0.55
Cc1cc(C)cc(C(=O)NCCCN2CCOCC2)c1 | 0.67 | 0.5
Cc1cccc(NC(=O)c2cc3ccccc3oc2=O)c1 | -0.225 | 0.9
N#C/C(=C/N1CCOCC1)c1ccccc1 | -2.97 | -0.65
CN(C)NC(=S)NC1CCS(=O)(=O)C1 (stereo not drawn) | 0 | -0.8
CCC(=O)n1cc(/C=C2\SC(=NC)N(C)C2=O)c(-c2ccccc2)n1 | -0.485 | x
CCOC(=O)c1cc2c(N3CCOCC3)nccc2nc1C(F)(F)F | -1.27 | -0.8
CCC(=O)N(CCOC)C1CCN(C)CC1 | -0.26 | x
C=CCSc1nc2c(c(=O)[nH]1)C(c1ccncc1)C(C(=O)OC)=C(C)N2 (stereo not drawn) | x | 0.3
Cc1cc(=O)n2c(c1C#N)SC1CCCCC12O (stereo not drawn) | x | 0.4
Cc1ccc(C(=O)NC2CCCCNC2=O)cc1C (stereo not drawn) | 0.67 | -0.1
CCCCNC(=O)CSc1nc2ccccc2n1S(=O)(=O)c1cc([N+](=O)[O-])ccc1C | -0.085 | x
COc1cc(C2c3c(oc4ccccc4c3=O)C(=O)N2CCCOC(C)C)cc(Br)c1O (stereo not drawn) | 0.03 | -0.65
O=C(O)c1ccc(CNCc2ccc(F)cc2)s1 | 0 | 0.35
O=C(Nc1ccc2nc(CN3CCCCC3)[nH]c2c1)c1cccs1 | x | -0.55
COc1ccc(C2=NN(C(C)=O)C(c3ccccc3)C2)cc1OC (stereo not drawn) | -1.73 | -0.25
C#CCn1c(C(C)Oc2ccccc2)nc2ccccc21 (stereo not drawn) | 0.015 | 0.25
CCCCn1c(=O)c(C#N)cc2c(=O)n3ccccc3nc21 | 0.77 | 0.25
[N-]=[N+]=CC(=O)OCC(N)C(=O)O (stereo not drawn) | -2.21 | 0.5
COc1cc(SC)ccc1C(=O)NC1CC1 | 0.5 | 0.55
COc1cc(-c2nc3ccccc3[nH]2)ccc1O | 42.4 | x
CCOC(=O)c1oc2ccccc2c1COC(=O)c1cccs1 | x | -0.55
CC1(C)SC(=S)N(/N=C/c2ccco2)C1N(O)C(=O)Nc1ccc(Cl)cc1 (stereo not drawn) | -0.805 | x
Cn1c(=O)c2c(ncn2CC(=O)c2ccc(Br)cc2)n(C)c1=O | 0.56 | x
CC(=O)n1c(C=NCc2ccccc2)c(O)c2ccccc21 | -0.11 | -0.2
N#Cc1c(NC(=O)CN2C(=O)C3CC=C(Cl)CC3C2=O)sc2c1CCC2 (stereo not drawn) | -1.26 | 0.2
COc1ccc(C(=O)CSc2n[nH]c(-c3ccncc3)n2)cc1C | -0.095 | x
Cc1ccc(-n2nc3c4ccccc4n(C)c3cc2=O)cc1 | 0.23 | 0
Cc1ccc(-c2csc(=Nc3ccccc3)n2CCc2ccccc2)cc1 | 0.59 | x
CC(C)(CO)NS(=O)(=O)c1csc(C(=O)Nc2ccccc2)c1 | -0.01 | -0.6
COc1ccc(CSCC(=O)NCCN2CCOCC2)cc1 | 0.32 | -0.1
NC(=O)c1ccc(-c2csnn2)cc1 | 0.21 | x
Cc1ccnc(NC(=O)C2CCCCC2)c1 | i | 0.25
CC(=O)Nc1ccc(NC(=O)c2ccccc2OC(C)=O)cc1 | -0.405 | 1.1
COc1cccc(NC2=Nc3cccc4cccc2c34)c1 | -0.615 | 0.35
COCCOC(=O)C1=C(C)NC2=C(C(=O)CC(c3ccc(OC)c(OC)c3)C2)C1c1ccccc1Cl (stereo not drawn) | 1.94 | x
COCc1cc(C)nc(SSc2nc(C)cc(COC)c2C#N)c1C#N | 0.2 | x
Cc1c(OCc2ccc(Cl)c(Cl)c2)ccc(C(=O)/C=C/N(C)C)c1O | -2.12 | -0.25
O=C(NCc1csc2ccccc12)C1CCCCC1 | -0.81 | -0.25
CC1=C(OC(=O)c2c(-c3c(Cl)cccc3Cl)noc2C)C(=O)CC1 | -0.79 | 1.05
COc1ccccc1OCCOc1ccc(/C=c2\sc3nc4ccccc4n3c2=O)cc1OC | 0.855 | x
Cc1csc(N(C(=O)C2CCC2)c2ccccc2)n1 | x | 0.1
CC(=O)O[C@H]1C[C@@]2(C)[C@@H](C[C@@H](O)C3[C@]2(C)CC[C@H]2[C@H](C)[C@H](O)CC[C@]32C)/C1=C(/CCC=C(C)C)C(=O)O (stereo partly drawn) | -1.62 | 0.05
CC(C)CN1C(=O)CSC1c1cn(-c2ccccc2)nc1-c1cc2ccccc2o1 (stereo not drawn) | x | -0.85
Cc1noc(C)c1COc1ccc(C(=O)OC(C)C(=O)Nc2ccc(S(=O)(=O)N3CCOCC3)cc2)cc1 (stereo not drawn) | x | 0.1
O=C(N/N=C/c1ccc(Br)s1)C1CC12CCC2 (stereo not drawn) | -0.2 | -0.75
CCNc1nc(=S)nc(NCc2ccccc2)[nH]1 | x | 0.35
CCOC(=O)C1CCN(CN2C(=O)C3(SC(C)C(=O)N3c3ccc(Cl)cc3)c3ccccc32)CC1 (stereo not drawn) | -0.125 | x
CCOC(=O)C1=C(C)NC(C)=CC1=C(C#N)C#N | -3.17 | -0.1
CC(C)CCN1C(=O)CC(N2CCN(S(=O)(=O)c3cccc(Br)c3)CC2)C1=O (stereo not drawn) | x | 2.25
COc1ccc(Cn2cc(-c3ccccc3)nn2)cc1 | 0.26 | 0.15

Additional compounds:
canonical_smiles | CapD inh | AID504770
CC(=O)Nc1ccc2c(CSc3nnc(-c4ccoc4C)n3-c3ccccc3)cc(=O)oc2c1 | x | 0.4
CC(=O)NC(=S)Nc1cccc(C)c1 | x | -1.55
CCOc1ccc(NC(=O)CSc2nc3[nH]ncc3c(=O)n2-c2ccc(Cl)cc2Cl)cc1 | -0.155 | x
Cc1ccc(C(=O)NC2CCOc3ccccc32)o1 (stereo not drawn) | x | 2.05
Cc1cc(Nc2ncc(Cl)cc2Cl)n[nH]1 | x | 0.75
O=C(CSc1nc2ccccc2n1S(=O)(=O)c1cccc([N+](=O)[O-])c1)NCCc1ccccc1 | -0.235 | x
O=C1CC(c2ccccc2)N(c2cccc(C(F)(F)F)c2)C(=S)N1 (stereo not drawn) | -0.23 | -0.2
CCOC(=O)c1[nH]nc(C(=O)c2ccccc2)c1-c1ccccc1 | -0.73 | 1.55
Cc1ccc(-n2nc(C)c3c(C)c(CCC(=O)NCC4CCN(C5CCCC5)C4)c(C)nc32)cc1C (stereo not drawn) | -0.905 | 0.1
C=CCN1C(=O)OC2(CCCCC2)C1(C)O (stereo not drawn) | -0.265 | x
O=C(NC1CCSC1)c1ccccc1NS(=O)(=O)c1ccccc1 (stereo not drawn) | 3.25 | 0.7
CCNC(=O)CC1C(=O)N(CC)C(=S)N1NC(=O)c1ccccc1 (stereo not drawn) | 1.1 | 0
Cc1nn(-c2ccccc2)c2sc(C(=O)OCN3C(=O)c4ccccc4C3=O)cc12 | -0.82 | -0.05
O=C(O)c1ccccc1-c1ccccc1C(=O)NCc1cccnc1 | -0.035 | 0.05
Cc1ccc2c(c1)C(=Nc1ccccc1)c1cc3cccc(C)c3nc1-2 | -0.355 | x
CCOC(=O)c1csc(-c2cn(-c3ccccc3)c(=O)n(C)c2=O)n1 | 2.33 | -0.95
Oc1ccc2c3c1O[C@H]1[C@@H](O)CC[C@@]4(O)[C@@H](C2)N(CC2CCC2)CC[C@]314 | -0.33 | x
O=C(COc1ccccc1)Nc1cccc(F)c1C(=O)O | -0.29 | 0.15
CCOC(=O)c1nn(-c2ccc(Cl)cc2)c(=N)c2c(N)c(C#N)c(N)nc12 | -0.36 | 1.25
O=c1cc(Cc2nnc(SCc3ccccc3)n2-c2ccccc2)[nH]c(=O)[nH]1 | 2.9 | -0.7
Cn1c(CNC(=O)c2cccc(F)c2)nnc1SCC(=O)N1N=C(c2ccc(Br)cc2)CC1c1ccc(F)cc1 (stereo not drawn) | 0.785 | x
COC(=O)c1cccc(N2C(=O)/C(=C/c3ccc(-c4ccc(Cl)c(Cl)c4)o3)C=C2c2ccccc2)c1 | 2.77 | x
CC(C(=O)N1CCc2ccccc21)n1sc2ccccc2c1=O (stereo not drawn) | 0.41 | 0.25
COc1c([N+](=O)[O-])cc(C(F)(F)F)cc1[N+](=O)[O-] | -0.47 | x
Cc1ccc(Cn2nc(C)c3cc(C(=O)NC4=NCCS4)sc32)cc1 | x | -1
CC(CNc1nc2ccccc2n2cnnc12)c1ccccc1 (stereo not drawn) | 0.35 | -0.45
COc1ccc(COC(=O)NNC(=O)c2ccc3nccnc3c2)c(Cl)c1OC | -0.64 | x
Cc1cc(C(C)(C)C)oc1C(=O)N(CC(=O)NC1CCCC1)c1ccc(F)cc1 | x | 0.1
N#Cc1c(Cl)nc(-c2ccccc2)nc1-c1ccccc1 | 0.225 | 0.45
O=C(Nc1ccc(Cl)c(Cl)c1)c1cc(S(=O)(=O)N2CCN(c3ccccc3)CC2)ccc1F | 0.485 | x
Cc1ccccc1-n1c(=S)sc2c1nc(SCC(=O)N1CCCC1)n1c3ccccc3nc21 | -0.445 | x
N/C(=N\O)c1c(-c2ccccc2)cc(-c2ccc(F)cc2)[nH]c1=O | 3 | 0.4
CN(C(=O)COC(=O)C1COc2ccccc2O1)C1CCCCC1 (stereo not drawn) | x | -1.05
Cc1cccc(N2CCN(CC#N)CC2)c1 | -1.47 | -0.6
O=C(NCc1ccco1)OCC(F)(F)F | x | 2.15
N#C/C(=C\Nc1cccc(C(F)(F)F)c1)C(=O)N1CCOCC1 | x | -0.55

An excerpt of these results, as labelled records:
Cc1ccc(Cn2nc(C)c3cc(C(=O)NC4=NCCS4)sc32)cc1
  CapD inh: x
  AID504770: -1

O=C(NCc1ccco1)OCC(F)(F)F
  CapD inh: x
  AID504770: 2.15

Cc1cccc(N2CCN(CC#N)CC2)c1
  CapD inh: -1.47
  AID504770: -0.6

The results go on.
canonical_smiles | CapD inh | AID504770
NC(=O)c1cc(S(=O)(=O)NCCN2CCCCCC2)cs1 | 0.2 | -0.85
COC(=O)CC1NC(=O)NC1=O (stereo not drawn) | x | 0
N#CC(C(=O)c1ccc(S(=O)(=O)N2CCCC2)cc1)c1nc2ccccc2[nH]1 (stereo not drawn) | x | 0.35
COc1ccc(N=C2SC(C(=O)Nc3ccccc3OC)CC(=O)N2Cc2ccc3c(c2)OCO3)cc1 (stereo not drawn) | -0.325 | x
COc1cc(CNCCC2CCOC(C)(C)C2)ccc1O (stereo not drawn) | -0.475 | -0.75
COc1cccc(NC(=O)c2sc3nc4c(c(-c5ccc(C)o5)c3c2N)CCCC4)c1 | -0.285 | x
CN1CCN(C(=O)c2ccc(N(C)S(C)(=O)=O)cc2)CC1 | x | 1.5
Cc1ccc(C=C(C#N)C#N)cc1 | -0.465 | x
CC1(C)Oc2nc3ccccc3n2/C1=C\C#N | x | -0.05

These rows are one share of the data, so the mix of outcomes need not match the whole.
